VDR inhibitor: vitamin D3 receptor (human) inhibition; 400,000 tested, 0.93% active; AID 504847; VDR-SRC2-3 peptide fluorescence polarization, 2 h; Potency, µM, for the others: max response, negative = inhibition, hits mostly inhibitors; active = well fitted inhibition curve with a large enough effect; inconclusive = small, poorly fitted or top-dose-only effect, or another doubt; inactive = no such curve, though single readings can be large or run the other way; note: series mostly up to about 120 µM
Target sequence (P11473 whole entry, looked up): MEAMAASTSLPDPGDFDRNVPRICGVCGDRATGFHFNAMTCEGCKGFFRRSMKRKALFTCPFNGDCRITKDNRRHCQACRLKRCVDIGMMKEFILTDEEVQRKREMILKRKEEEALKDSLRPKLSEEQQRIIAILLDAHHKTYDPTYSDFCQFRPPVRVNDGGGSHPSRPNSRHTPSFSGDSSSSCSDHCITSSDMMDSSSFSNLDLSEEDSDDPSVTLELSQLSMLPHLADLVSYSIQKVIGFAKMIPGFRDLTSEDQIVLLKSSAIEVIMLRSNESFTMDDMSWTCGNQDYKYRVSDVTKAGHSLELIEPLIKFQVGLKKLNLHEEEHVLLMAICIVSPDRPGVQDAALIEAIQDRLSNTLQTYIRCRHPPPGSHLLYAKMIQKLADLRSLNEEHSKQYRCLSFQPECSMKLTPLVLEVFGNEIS
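Fluorescence polarization assay measuring small-molecule disruption of VDR binding to the coregulator peptide SRC2-3. Compounds were pin-transferred (23 nl) into the reagent mix and incubated 2 h at room temperature before reading.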
* marks the source's active call; other numbers are inactive results; ? = inconclusive; & = joins results of further samples. % is set by controls: 0 for no effect and ±100 for the full control effect; potency is the fitted concentration of half-maximal effect. The list is partial; the hit share may differ from the screen's.

SMILES	VDR inhibitor
O=C(N1CCOCC1)C12CC3CC(C1)CC(C(=O)N1CCOCC1)(C3)C2	-1%
O=C(CNC(=O)c1ccccc1Cl)NC1CCN(Cc2ccccc2)CC1	6%
COc1ccc(CNC(=O)C2CCCN(c3nccc(C)n3)C2)cc1 (centres undefined)	10%
O=C(NCc1ccccc1F)C(=O)NCC(c1ccc2c(c1)OCO2)N1CCOCC1 (centres undefined)	2%
NC1=NN=C(c2ccc3c(c2)OCCO3)CS1	?
CC1CC(C)(C)NC(=S)N1CC(=O)NCc1ccccc1Cl (centres undefined)	0%
CCn1c(C)nc2cc(C(=O)NNC(=O)CN(C)S(=O)(=O)c3ccc(NC(C)=O)cc3)ccc21	-11%
CC(=O)Nc1ccc(S(=O)(=O)Nc2nc3ccccc3nc2Nc2cccc(S(N)(=O)=O)c2)cc1	-2%
CCS(=O)(=O)N1CCCc2cc(C(=O)Nc3cc([N+](=O)[O-])ccc3C)ccc21	1%
O=C(CN1CCN(c2ccccc2)CC1)Nc1scc2c1c(=O)oc1ccccc12	-29%
COc1ccc(CN(C)CC(O)COC(c2ccc(OC)cc2)c2ccc(OC)cc2)cc1 (centres undefined)	6%
CN(CC(=O)Nc1ccc(Cl)cc1)C(=O)CNC(=O)c1ccc2ccccc2c1	-13%
Cc1ccnc(NC(=O)CCC(=O)N(CC(=O)NCc2ccc(F)cc2)c2cccc(F)c2)c1	-2%
CCOc1cc(OCC)cc(C(=O)NC(=S)Nc2cccc(C(F)(F)F)c2)c1	3%
N#CCCn1nc(Cc2cccc3ccccc23)c(C#N)c1N	3%
CCc1ccc(NC(=O)CC2NCCNC2=O)cc1 (centres undefined)	24%
CC(=O)O[C@H](C(=O)O[C@@H]1C[C@@H](CCC[C@H]2O[C@H](C(=O)OC(C)C)CC[C@@H]2C)O[C@@H](CC#N)C1)c1ccccc1	-7%
CCCN(Cc1cc2cc(C)ccc2[nH]c1=O)C(=O)c1ccccn1	?
CCN1C(=O)C(CC(=O)Nc2ccc(OC)cc2)N(CCCN2CCN(c3ccc(OC)cc3)CC2)C1=S (centres undefined)	-3%
CC(C)N(C(=O)N1CCC(c2nc(-c3ccncc3)no2)CC1)C(C)C	-21%
CCC(=O)N[C@@H]1CCc2cccc(OC)c2C1	13%
CC(C)c1ccc(NC(=O)CCNS(=O)(=O)c2ccc3c(c2)oc(=O)n3C)cc1	-9%
CCOC(=O)CNC(c1ccccc1)c1cc(Br)ccc1NC(=O)c1cccc(Cl)c1 (centres undefined)	-23%
Cc1cccc(-n2c(-c3ccccc3)cn3c4c(=O)[nH]c(=O)n(C)c4nc23)c1	?
O=c1c2ccccc2nnn1CSc1nnc(-c2cccc(S(=O)(=O)N3CCCCC3)c2)o1	17%
CCCn1c(NC(=S)Nc2ccccc2)nc2ccccc21	-5%
CC1CCN(CC(=O)NC2CCCCC2)CC1	1%
O=C(N[C@H](Cc1ccc(Cl)cc1)C(=O)O)OCC1c2ccccc2-c2ccccc21	-10%
O=C(/C=C/c1ccncc1)c1cc(Cl)ccc1O	4%
CCC(=O)N1CCc2cc(Br)cc(S(=O)(=O)CCC(=O)NCCc3cccc(C)c3)c21	-7%
Cn1nc(OCCOc2ccccc2)ccc1=O	-3%
Cc1ccc2nc(-c3cccc(S(=O)(=O)N4CCCC4)c3)cn2c1	1%
CCOc1ccccc1N(CC(=O)NC(C)(C)C)C(=O)CCC(=O)Nc1nccs1	-2%
Cc1cccc2cc3cccc(C)c3nc12	-3%
Cc1ccc(S(=O)(=O)Nc2ccc(C(=O)Nc3cc(C)on3)cc2)cc1	-4%
CCOc1ccc(S(=O)(=O)N2CCN(Cc3ccc4c(c3)OCO4)CC2)cc1C	-5%
CCN=C1SC(CC(=O)NC(N)=O)C(=O)N1CC (centres undefined)	5%
COc1ccc(CN2CCN(C(=O)c3ccc(-c4ccccc4)cc3)CC2)c(OC)c1OC	9%
Cc1ccc2nc(-c3ccc(NC(=O)COc4ccccc4)cc3)sc2c1	-5%
NC(=O)[C@@H]1CC2(CC(c3cccc(NC(=O)CC(c4ccccc4)c4ccccc4)c3)=NO2)CN1C(=O)[C@@H]1CCC(=O)N1 (some centres undefined)	-14%
CN(C)S(=O)(=O)c1ccc(Cl)c(NC(=O)COC(=O)CCC2CCCCC2)c1	-7%
Cc1ccc(S(=O)(=O)NCC(=O)N(CC(=O)NCc2ccco2)Cc2ccccc2)cc1	-3%
N#Cc1c(N2CCCCC2)nc(N2CCCCC2)c2c1CCN(Cc1ccccc1)C2	-10%
O=C(CCCC(=O)N1CCN(c2ccccc2F)CC1)c1ccccc1	-4%
Cc1cc(C)n(-c2ccc(Cl)c(C(=O)O)n2)n1	8%
COc1ccc(-n2c(=O)c(CCc3ccccc3)nc3cnc(OC)nc32)cc1	-1%
Cc1ccc(C2CC(=O)Oc3cc(C)c(Br)c(C)c32)cc1 (centres undefined)	-3%&1%
Cc1cc(C)nc(Sc2ccc3nnc(C(F)(F)C(F)(F)C(F)(F)F)n3n2)n1	-7%
Cn1cc(-c2ccccc2C(=O)O)c(=O)c2ccccc21	1%
CCN(CC)c1nc(N)nc(N(c2ccccc2)c2ccccc2)n1	-7%
Cn1nccc1C(=O)NC(=S)Nc1cc(Cl)cc(Cl)c1	-28%
CC(=O)Nc1ccc(-c2nc3ccc(NC(C)=O)cc3o2)cc1	12%
COc1cc(C(=O)NCC(=O)N/N=C\C(C)=C/c2ccccc2)cc(OC)c1OC	-5%
Cc1ccc(N2CCN(C(=O)NC3CCCCC3)CC2C)cc1 (centres undefined)	8%
CCCc1cc(=O)[nH]c(SCC(=O)Nc2cccc(S(=O)(=O)N3CCCCC3)c2)n1	-10%
Cc1c(C(=O)OC2CCCC2)[nH]c2c1C(=O)CC(c1ccc(C(C)(C)C)cc1)C2 (centres undefined)	-23%
Cc1cc(O)c(-c2cc(C(=O)NCCc3ccc(S(N)(=O)=O)cc3)[nH]n2)cc1C	-22%
CN(C)S(=O)(=O)c1ccc(N2CCCC2)c(C(=O)NCc2cccc(C(F)(F)F)c2)c1	16%
CC1CCc2c(nc3ncnn3c2NCCc2ccccc2F)C1 (centres undefined)	1%
O=C(C1CCCCC1)N1CCN(c2nc(-c3ccc(F)cc3)cs2)CC1	-15%

Following part:
SMILES	VDR inhibitor
CC(C)(C)c1ccc(C(=O)N/C(=C\c2ccco2)C(=O)O)cc1	-3%
O=C(Cc1ccc(NC(=O)N2CCSc3ncccc32)cc1)NCc1ccccc1Cl	-6%
CCN(CC)c1ccc(NC(=O)CCCCC(=O)Nc2ccc(N(CC)CC)cc2)cc1	-7%
CC1CCC(NC(=O)c2cc3c(s2)CS(=O)(=O)C3)CC1 (centres undefined)	10%
CCC(C(=O)Nc1ccc(C(=O)Nc2ccccc2C(=O)O)cc1)c1ccccc1 (centres undefined)	2%
O=C(Nc1ccc2c(c1)CCC2)c1cnn2c1NC(c1ccco1)CC2C(F)(F)F (centres undefined)	-18%
CCCCNC(=O)C(C#N)c1nc2ccccc2nc1N1CCN(c2ccccc2F)CC1 (centres undefined)	-2%
COc1ccc(CCNC(=O)CCCn2c(=O)c3ccccc3n(Cc3ccccc3C)c2=O)cc1OC	9%
CC1CC(=Cc2ccc(N)cc2)C(=O)O1 (centres undefined)	-1%
N#Cc1ccc(CSc2nnc(-c3cccc(S(=O)(=O)N4CCCCC4)c3)o2)cc1	5%
COc1ccc(OC)c(-c2csc(NC(=O)CSc3ccc(Br)cc3)n2)c1	-11%
C=CC[n+]1c(-c2ccc(OC)cc2)csc1NNC(=O)Nc1ccccc1	-1%
COc1ccccc1C(=O)NC1(C(F)(F)F)C(=O)Nc2c1c(=O)[nH]c(=O)n2CCc1ccccc1 (centres undefined)	10%
CCOC(=O)c1ccc(NC(=O)Cc2cccs2)cc1	?
CCc1[nH]c(=O)c(C#N)c2c1CCCC2	-5%
Cc1oc2cc([N+](=O)[O-])c(O)c([N+](=O)[O-])c2c1C(=O)c1ccc(Br)cc1	-24%
COc1cc(NC(=O)c2ccc(Cl)cc2)c(OC)cc1NC(=O)CN1CCOCC1	5%
Cc1cc(NC(=O)c2ccc(COc3ccccc3Cl)o2)no1	-4%
CCOC(=O)C1=C(Cn2cnc3ccccc32)NC(=O)NC1c1cc(C)ccc1C (centres undefined)	-3%
CNc1nc(C)nc(-c2ccccc2O)n1	9%
COc1ccc(C(=O)NCC(c2ccco2)N2CCc3ccccc32)c(OC)c1 (centres undefined)	-9%
COc1ccc(CN(Cc2ccccn2)S(=O)(=O)c2ccc(-n3cnnn3)c(OC)c2)cc1	15%
CCSc1nc2c(c(=O)n(C)c(=O)n2C)n1Cc1ccc(Cl)cc1	-17%
CCOC(=O)N1CCN(C(=O)/C(=C/c2cccs2)NC(=O)c2ccc(OC)c(OC)c2)CC1	5%
CC(=O)N1c2ccc(S(=O)(=O)NCCC(=O)NCCc3ccc(C)cc3)cc2CC1C (centres undefined)	?
N#Cc1ccc(C23CC4(C2)[C@H](CN(Cc2cccnc2)[C@@H]4c2ccccc2)C3c2ccccc2)cc1 (some centres undefined)	-6%
CSc1nnc(NC(=O)c2cc(=O)c3cc(C)cc(C)c3o2)s1	-18%
CCNC(=S)Nc1ccc(OCc2nc3ccccc3s2)cc1	71µM*
Nc1ccc2nc(CN3CCOCC3)[nH]c2c1	9%
CN1/C(=C/C=N/n2cnnc2)C(C)(C)c2ccccc21	-8%
CCc1ccc(C(=O)NNc2ccc(Cl)cc2)cc1	-19%
NCCCC[C@@H]1NC(=O)c2cc([N+](=O)[O-])cc(I)c2SC[C@@H](C(=O)NCC(N)=O)NC(=O)CNC1=O	4%
COc1ccc2c(c1)CC(C)C/C2=N\NC(=O)c1ccco1 (centres undefined)	-10%
COc1ccccc1C1C2=C(CC(C)(C)CC2=O)Nc2nnnn21 (centres undefined)	-12%
COc1ccc(S(=O)(=O)Cc2ccc(C(=O)NCc3ccccc3)o2)cc1	10%
Cn1c(=O)oc2cc(S(=O)(=O)N3CCCC(C(=O)N4CCN(c5ccc(Cl)cc5)CC4)C3)ccc21 (centres undefined)	2%
CC1Cc2ccccc2N1C(=O)CSc1nnc2c(n1)[nH]c1ccc(F)cc12 (centres undefined)	-2%
CC(C)Oc1ccc(Cn2c(-c3ccco3)n[nH]c2=S)cc1	-14%
COc1ccc(OCc2nnc(SCC(=O)NNC(=O)c3ccc(C)cc3)n2C)cc1	-13%
CN(C)CCCNc1cc(O)c2ncccc2c1	-4%
CN(C)S(=O)(=O)c1ccc(N2CCCC2)c(C(=O)NC2CCCCC2)c1	11%
COc1ccccc1C(=O)Nc1cc2c(cc1C(=O)O)OCCCO2	-1%
CCn1cc(C(=O)NCc2ccco2)c(=O)c2ccc(C)nc21	3%
O=C(O)c1cc(-c2cccc([N+](=O)[O-])c2)n[nH]1	?
CCCCc1nnc(NC(=O)c2cccc(S(=O)(=O)N3CCN(C)CC3)c2)s1	6%
Cc1ccc(NC(=O)C(=O)NCC(c2cccnc2)N2CCN(Cc3ccccc3)CC2)cc1Cl (centres undefined)	9%
CCCn1c(SCC(=O)Nc2nnc(CC)s2)nnc1-c1ccco1	9%
COc1ccc(Cn2nnnc2CN2CCC(c3nc4ccccc4s3)CC2)cc1	-8%
Cc1ccc(OCCn2c(=O)sc3ccccc32)cc1	-9%
CCOC(=O)NCC(C)(C)CNC(=O)OCC	0%
O=C(COc1cccc2ccccc12)N/N=C/C=C/c1ccccc1	10%
CCCCNc1nc2c(-c3ccccc3)nnn2c2ccccc12	-7%
Brc1ccc(Cn2c(-c3ccc(Br)o3)nc3ccccc32)o1	-17%
CN(CCNC(=O)c1cc2c(=O)n(C)c3ccccc3c2n1C)Cc1ccccc1	-6%
CC1CCN(S(=O)(=O)c2cc(C(=O)NCCc3ccccc3)n(C)c2)CC1	9%
Cc1nn(-c2ccccc2)c(C)c1C(=O)OCC(=O)N(C)c1c(N)n(Cc2ccccc2)c(=O)[nH]c1=O	0%
O=C(NNC(=O)c1cc(-c2ccccc2)nc2ccccc12)Nc1cccc(Cl)c1	-5%

Filtered by structure, those above containing a Cl atom (17)
SMILES	VDR inhibitor
O=C(CNC(=O)c1ccccc1Cl)NC1CCN(Cc2ccccc2)CC1	6%
CC1CC(C)(C)NC(=S)N1CC(=O)NCc1ccccc1Cl (centres undefined)	0%
CN(CC(=O)Nc1ccc(Cl)cc1)C(=O)CNC(=O)c1ccc2ccccc2c1	-13%
CCOC(=O)CNC(c1ccccc1)c1cc(Br)ccc1NC(=O)c1cccc(Cl)c1 (centres undefined)	-23%
O=C(N[C@H](Cc1ccc(Cl)cc1)C(=O)O)OCC1c2ccccc2-c2ccccc21	-10%
O=C(/C=C/c1ccncc1)c1cc(Cl)ccc1O	4%
CN(C)S(=O)(=O)c1ccc(Cl)c(NC(=O)COC(=O)CCC2CCCCC2)c1	-7%
Cc1cc(C)n(-c2ccc(Cl)c(C(=O)O)n2)n1	8%
Cn1nccc1C(=O)NC(=S)Nc1cc(Cl)cc(Cl)c1	-28%
O=C(Cc1ccc(NC(=O)N2CCSc3ncccc32)cc1)NCc1ccccc1Cl	-6%
COc1cc(NC(=O)c2ccc(Cl)cc2)c(OC)cc1NC(=O)CN1CCOCC1	5%
Cc1cc(NC(=O)c2ccc(COc3ccccc3Cl)o2)no1	-4%
CCSc1nc2c(c(=O)n(C)c(=O)n2C)n1Cc1ccc(Cl)cc1	-17%
CCc1ccc(C(=O)NNc2ccc(Cl)cc2)cc1	-19%
Cn1c(=O)oc2cc(S(=O)(=O)N3CCCC(C(=O)N4CCN(c5ccc(Cl)cc5)CC4)C3)ccc21 (centres undefined)	2%
Cc1ccc(NC(=O)C(=O)NCC(c2cccnc2)N2CCN(Cc3ccccc3)CC2)cc1Cl (centres undefined)	9%
O=C(NNC(=O)c1cc(-c2ccccc2)nc2ccccc12)Nc1cccc(Cl)c1	-5%

Screening data as filed in PubChem BioAssay.
